GALR2 ag – GALR2 receptor agonists, primary screen, cell-based; Galanin receptor type 2 (Homo sapiens), O43603; GALR2-expressing cells, agonist activation read-out; activation, %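 (tested at 5 µM)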; 140,000 compounds, 0.48% hits; AID 803, 2007;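 active = above mean plus 3 SD of all compounds, about 5% in these data, not always enough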;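 also: 0% = vehicle buffer wells and 100% = reference agonist at full effect; tested in CHO reporter cells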
Target sequence (O43603 whole entry, looked up): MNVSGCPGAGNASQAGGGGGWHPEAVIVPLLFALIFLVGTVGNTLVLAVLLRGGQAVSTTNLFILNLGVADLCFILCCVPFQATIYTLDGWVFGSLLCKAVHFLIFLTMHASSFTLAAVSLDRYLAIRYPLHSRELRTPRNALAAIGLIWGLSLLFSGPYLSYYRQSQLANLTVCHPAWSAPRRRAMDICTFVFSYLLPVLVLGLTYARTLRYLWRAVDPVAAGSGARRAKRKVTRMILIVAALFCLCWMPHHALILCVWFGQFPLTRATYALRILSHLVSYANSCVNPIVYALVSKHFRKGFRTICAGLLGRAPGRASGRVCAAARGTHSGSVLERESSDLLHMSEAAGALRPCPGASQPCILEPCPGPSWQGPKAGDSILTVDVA
Insulin prom inh – inhibitors of insulin promoter-driven GFP, primary screen, imaging, TRM-6 cells (human fetal islet line), eGFP reporter, cell count. reporter expression induced with tamoxifen. inhibition, % at 2 µM. 130,000 compounds, 0.9% hits. AID 1273, 2008;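 active = inhibition above the mean plus 3 SD, with well images judged a real hit on visual review, cut at about 60% in these data, passing the limit was not always enough; inconclusive = inhibition over the cutoff but images rejected on review; inactive = inhibition not above the cutoff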
RGS16-Gao HTS – modulators of RGS16 binding to Galphao, primary screen, biochemical, human proteins, multiplexed bead flow cytometry; 220,000 compounds, 0.38% hits; Regulator of G-protein signaling 16 (Homo sapiens) + Guanine nucleotide-binding protein …; binding response (% of control), % at 10 µM; bead-based flow cytometry RGS16-Galphao binding, fluorescence; actives lie on both sides; AID 1441, 2008;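 active = below 25% or above 175%, edge rows of some plates excepted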;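 also: Galphao activated by GDP with aluminum fluoride before binding; 100% = wells without compound and 0% = beads without RGS; some results beyond the cut were filed as inactive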
Target sequence (O15492 whole entry, looked up): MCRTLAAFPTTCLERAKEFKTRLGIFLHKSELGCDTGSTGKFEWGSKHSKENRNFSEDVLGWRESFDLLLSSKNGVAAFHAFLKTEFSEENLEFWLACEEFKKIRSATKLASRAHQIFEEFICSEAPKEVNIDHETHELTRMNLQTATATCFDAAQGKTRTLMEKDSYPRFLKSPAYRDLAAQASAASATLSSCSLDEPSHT
Target sequence (P09471 whole entry, looked up): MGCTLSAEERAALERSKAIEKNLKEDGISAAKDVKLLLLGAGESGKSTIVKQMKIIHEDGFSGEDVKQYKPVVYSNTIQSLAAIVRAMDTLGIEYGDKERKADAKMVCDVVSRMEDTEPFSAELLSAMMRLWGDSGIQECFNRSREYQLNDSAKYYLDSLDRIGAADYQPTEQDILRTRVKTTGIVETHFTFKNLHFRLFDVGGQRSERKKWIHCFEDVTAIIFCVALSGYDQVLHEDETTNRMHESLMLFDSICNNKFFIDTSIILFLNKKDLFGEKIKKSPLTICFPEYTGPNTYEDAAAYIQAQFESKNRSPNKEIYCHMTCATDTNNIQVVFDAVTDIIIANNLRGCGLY
HSV replic up – enhancers of HSV replication in host cells, fold increase, host cell viability. HSV replication augmentation in cells. maximum fold increase. 220,000 compounds, 0.005% hits;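 active = peak rise of 1.5-fold or more in the series; inconclusive = self-fluorescent or not available for retest; tested in PC3 cells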;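 also: first round at 10 µM; read as green reporter fluorescence; hits show the peak of a series up to 25 µM; 1 = signal of infected wells without compound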
PKD1 kinase inh – inhibitors of human PKD1 kinase, biochemical, fluorescence polarization | 200,000 compounds, 0.056% hits | PKD1 kinase fluorescence polarization assay | Serine/threonine-protein kinase D1 (Homo sapiens), Q15139 | AID 797, 2007 | inhibition, %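 (about 10 µM by stock and volumes)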;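 active = inhibition of 50% or more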;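 also: controls were vehicle for no effect and a reference inhibitor for full effect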
Insulin prom inh cell count – recorded beside Insulin prom inh, whose call it bears; normalized cell count, %; measured here: cell count, toxicity; reference of the scale not given here;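 cells exposed to compound for 48 h; stained nuclei by imaging scaled within each plate; lower means fewer cells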
HSV replic up primary fold – also measured in HSV replic up; calls as there; fold increase; compound at 10 µM; measured here: primary screen fold increase 10 uM; tested in PC3 cells;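 GFP signal in the first replicate; 1 = infected wells without compound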
Numbers without * were called inactive; i = inactive; u = inconclusive; x = no result given.

The line under a structure holds: GALR2 ag	Insulin prom inh	Insulin prom inh cell count	RGS16-Gao HTS	HSV replic up	HSV replic up primary fold	PKD1 kinase inh
> Cc1ccsc1-c1nc(CN2CCN(C)C(=O)[C@@H]2C)c(C)o1
    x	x	x	111.4	i	1.03	1.7
> COc1cccc(Nc2nnc(SCC3CCCCO3)s2)c1 (stereo unspecified)
    x	22.2	112.5	102.5	i	1.03	3.0
> NC(=O)c1cc(-c2ccccc2)nc(N2CCOCC2)n1
    -0.8	-179.3	49.6	52.0	i	0.91	-2.3
> O=c1oc2c(CN3CCOCC3)c(O)c(Cl)cc2c2c1CCCC2
    3.3	x	x	102.1	i	0.97	-1.2
> N#Cc1ccccc1OCC(O)CS(=O)(=O)c1ccccc1 (stereo unspecified)
    x	15.4	92.5	99.4	i	1.05	1.4
> COCCCn1c(C)nc2c(c1=O)c1nc3ccccc3nc1n2CCc1ccccc1
    -2.1	7.7	148.6	97.8	i	0.8	11.1
> Cn1cncc1C(=O)c1ccccc1
    x	x	x	102.2	i	0.98	x
> COC(=O)c1ccc(C(=O)OC)c(NC(=O)CSc2nc(-c3ccco3)cc(C(F)(F)F)n2)c1
    0.0	8.6	104.2	x	x	x	-6.5
> CCOC(=O)c1c(C)c(C(=O)NCc2cccnc2)c(C)n1CC
    -1.9	9.4	99.1	90.5	i	0.92	-8.2
> Cc1ccc2nc(NCCCO)nc(-c3ccccc3)c2c1
    3.4	-8.5	116.9	107.6	i	0.933	-8.1
> CC(OC(=O)C1CCN(S(=O)(=O)c2ccc(Cl)cc2)CC1)C(=O)N1CCc2ccccc21 (stereo unspecified)
    -1.5	46.1	137.7	103.0	i	0.93	-7.6
> Cc1c([N+](=O)[O-])cc(C(=O)Nc2ccc(Cc3ccncc3)cc2)cc1[N+](=O)[O-]
    -1.8	34.6	77.5	114.8	i	1.07	-9.0
> COc1ccc2c3c([nH]c2c1)C1CC2C(CC(O)C(OC)C2C(=O)O)CN1CC3 (stereo unspecified)
    x	x	x	99.8	u	x	x
> Cc1ccc(Oc2ccc(-c3nc(N)nc(N)n3)cc2)cc1
    0.2	-59.1	93.4	99.6	i	0.68	1.9
> O=C(CN1C(=O)CSC1=O)NC1CCCCC1
    -0.5	-276.2	57.1	103.7	i	1.08	-1.0
> CCN(CC)CCCNC(=O)N[C@@H](Cc1ccccc1)C(=O)O
    -1.1	35.7	143.3	99.3	i	0.95	-1.7
> CCOC(=O)c1oc2ccccc2c1NC(=O)c1ccc2c(c1)OCO2
    0.8	15.4	208.1	103.5	i	0.86	-5.0
> COc1ccc(CCNC(=O)Cn2cnc3sc(C)c(-c4ccc(F)cc4)c3c2=O)cc1OC
    x	10.5	90.3	104.8	i	0.9	-5.8
> O=c1c2ccccc2nnn1Cc1ccc2ccccc2c1
    x	x	x	105.0	i	0.99	7.2
> CCCC(=O)Nc1ccc(N2CCOCC2)cc1
    -2.2	-29.0	64.0	102.8	i	1.01	-1.6

Among those listed so far, 2 have a thiophene ring, fused or not.
The line under a structure holds: GALR2 ag	Insulin prom inh	Insulin prom inh cell count	RGS16-Gao HTS	HSV replic up	HSV replic up primary fold	PKD1 kinase inh
> Cc1ccsc1-c1nc(CN2CCN(C)C(=O)[C@@H]2C)c(C)o1
    x	x	x	111.4	i	1.03	1.7
> COc1ccc(CCNC(=O)Cn2cnc3sc(C)c(-c4ccc(F)cc4)c3c2=O)cc1OC
    x	10.5	90.3	104.8	i	0.9	-5.8

(cont.)
The line under a structure holds: GALR2 ag	Insulin prom inh	Insulin prom inh cell count	RGS16-Gao HTS	HSV replic up	HSV replic up primary fold	PKD1 kinase inh
> O=C(c1ccco1)N1CCC(c2nc(-c3ccccc3Cl)no2)CC1
    0.8	50.0	61.4	71.7	i	1.03	9.3
> Cc1c(-c2ccc(F)cc2)nc(N)c(C#N)c1-c1cccnc1
    x	x	x	88.7	i	0.95	x
> COc1nc(Cl)cn(-c2ccc(C)cc2)c1=O
    -0.6	-13.3	111.3	61.2	i	1.1	-5.3
> CCOC(=O)C1=C(N)OC2=C(C(=O)CC(C)(C)C2)C1c1cccs1 (stereo unspecified)
    -2.5	31.6	65.4	105.4	i	0.967	-4.5
> CCC(=O)Nc1ccc(NC(=O)c2ccccn2)cn1
    -1.5	3.1	108.7	102.9	i	1.07	-10.4
> CN(C)CCCNc1cc(Cl)c(S(=O)(=O)N2CCCCC2)cc1C(=O)O
    -1.3	46.7	47.6	102.0	x	x	-6.3
> C/C(=N\Nc1nc2c(s1)CCCC2)c1ccc(Cl)cc1
    -1.1	x	x	100.2	i	0.96	15.2
> N#Cc1nc(Cc2cccc3ccccc23)oc1NCC1CCCO1 (stereo unspecified)
    -2.3	7.7	121.9	92.8	i	0.81	-4.9
> C/C(=N\NC(=O)c1ccc(Br)cc1)C1C(=O)c2ccccc2C1=O
    -2.2	21.1	41.6	102.1	i	0.84	1.7
> O=C(Cn1ncnn1)OCc1ccccc1Cl
    -2.8	8.3	105.0	98.2	i	1.03	2.0
> Cc1cccc(N(C(=O)Cn2nnc3ccccc32)C(C(=O)NC(C)(C)C)c2ccsc2)c1 (stereo unspecified)
    -0.5	-7.1	100.0	101.2	i	0.85	-2.4
> COCCN(CCOC)c1ncnc2c1cnn2-c1ccccc1
    x	x	x	96.7	i	0.9	x
> COc1cc(-c2noc(CCC(N)=O)n2)cc(OC)c1OC
    -1.3	x	x	102.5	i	0.83	-0.2
> Cc1ccc(NCCC(=O)c2ccc(Cl)cc2)cc1C
    -0.5	-13.8	135.1	103.0	i	0.79	-9.8
> Oc1oc(-c2ccccc2)nc1C=Nc1ccccc1
    -2.7	-15.8	59.6	100.5	i	0.9	-6.7
> Cc1n[nH]c(=O)nc1Nc1ccc(O)cc1
    -0.2	-5.6	109.0	96.8	i	0.99	1.5
> Cc1cc(C)cc(-n2c(C)cc(/C=N/NC(=O)CSc3ncccn3)c2C)c1
    -0.5	-12.9	93.1	104.2	i	0.86	-6.7
> COc1ccccc1N1CCN(CC(=O)Nc2cccc(F)c2)CC1
    -0.6	x	x	100.7	i	0.98	-10.9
> COCCCNC(=O)C12CCC(C)(C(=O)C1)C2(C)C (stereo unspecified)
    -1.7	-18.2	110.9	97.7	i	1.04	-1.4
> CC1CCCCN1c1ncnc(N)c1[N+](=O)[O-] (stereo unspecified)
    x	22.2	161.2	111.2	i	0.76	-1.6
> C=CCc1c(NCCO)nc(C)[nH]c1=O
    x	-13.3	105.8	100.5	i	0.98	-0.6
> Cc1nc(C(=O)N(C)C)nn1-c1cc(Cl)ccc1Cl
    -1.7	-11.1	77.6	112.5	i	0.95	-5.4
> N#Cc1cc(C(=O)c2cc(F)ccc2O)cn(Cc2ccccc2)c1=O
    x	20.0	117.5	95.6	i	1.24	-4.8
> Fc1ccccc1-c1nc2ncccc2o1
    x	33.3	122.6	106.6	i	0.86	-1.8
> O=c1c(S(=O)(=O)c2ccc(Cl)cc2)cn(Cc2ccccc2F)c2ccc(F)cc12
    -2.6	19.4	94.6	91.5	i	0.98	1.0
> CCOC(=O)c1c(C)[nH]c(C)c1C(=O)COC(=O)/C=C/c1cccc(Cl)c1
    -0.7	20.0	99.7	72.5	i	0.87	6.0
> O=C(O)c1cc(Cl)c(Cl)cc1C(=O)N1CCOCC1
    -1.5	-30.4	127.3	102.8	i	0.78	-14.7
> COc1ccc(CCNC(=O)COc2ccc(-c3ccc(C#N)cc3)cc2)cc1
    0.0	x	x	98.9	i	0.91	-1.0
> O=C(NC1CC2CCCC(C1)N2C(=O)NC1CCCCC1)c1ccc(F)cc1 (stereo unspecified)
    0.4	41.7	108.7	108.0	i	0.97	-2.0
> CN1CCN(c2ccc([N+](=O)[O-])cc2/C=N/NC(=O)c2cccc([N+](=O)[O-])c2)CC1
    -0.3	10.3	100.0	108.2	i	0.83	-7.1
> COc1ccccc1NC(=O)C1=C(C)NC(SCC(=O)c2ccc(C)cc2)=C(C#N)C1c1ccco1 (stereo unspecified)
    -0.9	16.1	148.9	97.9	x	x	3.3
> COc1ccccc1Nc1nc(N)nc(CN2CCCCC2)n1
    x	-83.3	55.1	100.1	i	1.03	1.4
> CCCCNC(=O)C1CCN(c2nc(OC)nc(OC)n2)CC1
    -1.8	-20.0	95.0	x	i	1.03	6.3
> Cc1ccc(CNC(=O)CCS(=O)(=O)c2cccc3nsnc23)cc1
    -0.8	x	x	98.1	i	0.99	-10.8
> C=C(C)Cn1c(C)cc(C)c(S(=O)(=O)c2ccccc2C)c1=O
    0.3	78.4*	40.9*	125.2	i	1.2	-9.5
> CC(NC(=O)COc1cccc(Br)c1)C(=O)O (stereo unspecified)
    -2.4	x	x	69.1	x	x	-6.6
> C/C(O)=C\c1nc2ccccc2oc1=O
    -3.4	-10.7	102.2	100.2	i	1.04	-7.9
> Cc1ccsc1/C=N/NC(=O)c1ccc(Cn2cc(Br)cn2)o1
    -1.1	15.4	81.8	66.0	i	0.98	-0.6
> Cc1ccc(CN2CCN(Cc3cn(C)nc3-c3ccccc3)CC2CCO)o1 (stereo unspecified)
    x	x	x	95.6	i	1.11	-1.5
> O=C(CSc1ccc(-c2cccc([N+](=O)[O-])c2)nn1)NC1CCCC1
    x	55.6	48.3	80.2	i	0.98	-6.5
> CC(=O)Oc1ccc(C(=O)Nc2ccccc2C(=O)N2CCCCC2)cc1
    x	x	x	99.4	i	0.95	-2.4
> COc1ccccc1C1CC(c2ccc(Cl)cc2)Nc2nc(N)nn21 (stereo unspecified)
    -0.8	-22.2	66.5	97.9	i	1.09	-3.6
> Cc1c(NS(=O)(=O)c2cccc(C(=O)NCc3ccccc3)c2)c(=O)n(-c2ccccc2)n1C
    -4.2	-23.3	77.9	100.6	x	x	7.5
> COc1ccc(/C=C2\N=C(C)N(c3ccc(C(=O)O)cc3)C2=O)cc1OC
    -0.5	66.7	96.6	24.7	i	1	-10.7
> COc1ccc(OCc2nc3ccccc3[nH]2)cc1
    -1.0	x	x	103.6	i	0.75	-3.9
> CCOC(=O)c1nn(-c2ccccc2)c(C#N)c1N
    x	x	x	100.3	i	0.89	-6.7
> COc1ccccc1C/C(N)=N/OC(=O)COc1cccc(C)c1C
    x	x	x	95.9	i	0.99	-4.3
> CCOC(=O)C(=NC1CCS(=O)(=O)C1)NNc1ccccc1Cl (stereo unspecified)
    x	x	x	105.3	i	1.06	x
> COc1cc(Cl)c(C)cc1NC(=O)Cc1ccc(OC)c(OC)c1
    x	x	x	93.1	i	0.82	2.2
> CC1CCc2c(sc3ncn4c(SCC(=O)NCc5ccco5)nnc4c23)C1 (stereo unspecified)
    -3.2	12.1	89.1	98.6	i	0.76	3.8

Remaining list, next part:
The line under a structure holds: GALR2 ag	Insulin prom inh	Insulin prom inh cell count	RGS16-Gao HTS	HSV replic up	HSV replic up primary fold	PKD1 kinase inh
> CCN(C(=O)CSc1nc2cc(C(=O)OC)ccc2c(=O)n1Cc1ccco1)c1cccc(C)c1
    -0.5	x	x	101.0	i	1.02	-2.3
> N#C/C(=C\c1c(N2CCC(C(N)=O)CC2)nc2ccccn2c1=O)S(=O)(=O)c1ccccc1
    0.5	x	x	110.5	i	0.64	4.6
> Fc1ccc(C2NC(=S)NC3=C2N2CCC3CC2)cc1 (stereo unspecified)
    -1.6	-5.7	113.1	104.5	i	0.85	-0.6
> CCSc1ncc(/C=N/Nc2ccc(Cl)cc2)n1C
    -0.8	11.8	112.7	69.2	i	0.8	2.2
> COc1cc2c(cc1NC(=O)C(C)OC(=O)C1CC(=O)N(Cc3ccco3)C1)oc1ccccc12 (stereo unspecified)
    -1.9	14.3	74.1	106.6	i	0.82	-3.5
> COc1ccc(C2=NN(C(=O)COc3ncnc4ccccc34)C(c3ccco3)C2)cc1 (stereo unspecified)
    x	x	x	107.2	i	0.79	-4.3
> O=C(CC1Oc2ccccc2NC1=O)NCCCN1CCOCC1 (stereo unspecified)
    -2.2	x	x	99.8	i	0.87	-10.0
> O=C1C=CC(=O)N1CCNc1ncc(C(F)(F)F)cc1Cl
    x	-400.0	1.9	86.4	i	0.65	-3.4
> CC1=NNC(=O)C1CC(=O)N/N=C/C(Br)=C/c1ccccc1 (stereo unspecified)
    x	x	x	96.4	i	0.91	x
> CCn1c(SCC(=O)NC(=O)NCc2ccco2)nnc1-c1cccs1
    0.1	-9.3	91.2	98.5	i	0.82	-10.6

Assay outcomes deposited in PubChem BioAssay by several laboratories.
